# A488 autofl – qHTS Assay for Spectroscopic Profiling in A488 Spectral Region; compound autofluorescence, A488 spectral region, dye equivalency; hits give high values; max dye equivalency, M; 59,000 compounds, 0.1% hits; active = above 10 nM dye equivalent; inconclusive = 1 to 10 nM; inactive = 1 nM or less; about half of its hits are not listed in these tables;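 further: highest value over a series up to 38 µM; compound alone in buffer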
#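 Intrinsic compound fluorescence is measured in 100 mM Tris buffer at pH 8.0 following 15 min incubation at room temperature. Intensities at 480 nm excitation/540 nm emission are calibrated to an on-plate A488 concentration series, giving dye-equivalent concentrations.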
# A647 fluor – qHTS Assay for Spectroscopic Profiling in A647 Spectral Region | Compound fluorescence, A647 channel (570/671 nm), Tris buffer | max dye-equivalent concentration, M | 59,000 tested, under 10 active; active means above 1 µM dye equivalent; inconclusive means 0.1 to 1 µM; inactive means 0.1 µM or less;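 further: values scaled relative to a standard on each plate; highest value over a series up to 38 µM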
#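 Each compound's intrinsic fluorescence at 570 nm excitation and 671 nm emission is measured across its concentration series in 100 mM Tris, pH 8.0, after 15 min at room temperature, and reported relative to an A647 curve.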
# Resorufin autofl – qHTS Assay for Spectroscopic Profiling in Resorufin Spectral Region; Compound fluorescence, resorufin region 547/598 nm, buffer; hits give high values; max dye-equivalent concentration, M; 59,000 compounds, 0.04% hits; active = above 10 nM dye equivalent; inconclusive = 1 to 10 nM; inactive = 1 nM or less; a few of its hits are not listed in these tables; further: highest value over a series up to 38 µM
#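 Compounds in 100 mM Tris, pH 8.0, incubated 15 min at room temperature, then fluorescence read at 547 nm excitation/598 nm emission. Signal converted to dye-equivalent concentration via an on-plate six-point resorufin standard curve, per compound concentration.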
# AID923 – qHTS Assay for Allosteric/Competitive Inhibitors of Caspase-1: Spectroscopic Profiling in AFC Spectral Region. Potency, µM (top dose mostly 57.5 µM), without a hit: at the top dose fluorescence increase, most hits filed as activators. compound fluorescence, AFC spectral region (405/520 nm); almost no hit is shown here. 75,000 compounds, 1.1% hits; active means well fitted activation curve with a large enough effect; inconclusive means small, poorly fitted or top-dose-only effect;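 further: potency means the concentration at half of the fitted maximal effect; 0% is about no effect; scaled to a free AFC standard on each plate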
#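 Compound autofluorescence profiled at 405 nm ex/520 nm em during kinetic caspase 1 run (50 nM enzyme, 5 uM Ac-WEHD-AFC, HEPES pH 7.5, 10 mM DTT). Titration up to 57 uM; baseline from regression intercept, normalized to AFC standard curve.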
# TSHR agonist – qHTS Assay for Agonists of the Thyroid Stimulating Hormone Receptor | Thyrotropin receptor (Homo sapiens), P16473 | HEK293-CNG-TSHR cells (CNG channel as cAMP sensor), membrane potential dye, cAMP | Potency, µM (highest dose often 57.1 µM), without a hit: at the highest dose activation, most hits filed as activators | 73,000 compounds, 0.48% hits; active = well fitted activation curve of enough size with the parental cells flat; inconclusive = any curve in the parental cells; inactive = parental cells flat and receptor cells flat or falling; further: potency means the concentration at half of the fitted maximal effect; % of control where 0% means no effect; weak receptor curves with flat parental cells got no call and are not listed
# Target sequence (P16473 whole entry, looked up): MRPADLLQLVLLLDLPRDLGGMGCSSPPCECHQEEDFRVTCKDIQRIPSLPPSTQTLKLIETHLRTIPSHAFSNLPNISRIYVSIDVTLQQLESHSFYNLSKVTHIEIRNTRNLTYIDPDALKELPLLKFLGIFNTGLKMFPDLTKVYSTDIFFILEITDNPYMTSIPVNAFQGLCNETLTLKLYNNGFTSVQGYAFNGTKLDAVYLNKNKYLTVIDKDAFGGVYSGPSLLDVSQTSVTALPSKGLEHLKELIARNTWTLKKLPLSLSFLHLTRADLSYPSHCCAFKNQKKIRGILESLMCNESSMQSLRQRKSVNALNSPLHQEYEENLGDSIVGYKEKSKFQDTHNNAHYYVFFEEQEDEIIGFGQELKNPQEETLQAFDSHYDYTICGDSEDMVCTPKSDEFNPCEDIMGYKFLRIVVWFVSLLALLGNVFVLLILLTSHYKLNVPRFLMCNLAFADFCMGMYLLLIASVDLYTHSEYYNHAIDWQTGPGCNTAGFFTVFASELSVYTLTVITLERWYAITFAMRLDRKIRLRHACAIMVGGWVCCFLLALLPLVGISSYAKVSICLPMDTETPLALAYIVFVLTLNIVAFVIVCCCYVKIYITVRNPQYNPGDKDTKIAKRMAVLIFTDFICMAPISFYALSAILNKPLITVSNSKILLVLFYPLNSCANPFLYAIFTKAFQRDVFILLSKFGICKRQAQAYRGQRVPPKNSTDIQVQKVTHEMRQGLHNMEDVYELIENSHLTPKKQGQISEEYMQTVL
#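 HEK 293 cells stably expressing TSHR and a cAMP-gated CNG channel; parental CNG-only cells as counterscreen. Cells preloaded 60 min with membrane potential dye plus 100 uM RO 20-1724, then compound 30 min; fluorescence read at 590 nm.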
# Starred values were filed as active, the others as inactive; i = inactive; ? = inconclusive; · = no result given; & = joins results of further samples; [ ] = remark or other dose. A portion of the library; the hit share may differ from the screen's.
SMILES,A488 autofl,A647 fluor,Resorufin autofl,AID923,TSHR agonist
Cc1cc(C(=O)OCC(=O)Nc2ccc(F)cc2)c(C)o1,i,3.4e-08,i,1.8%,-12%
COc1ccc(OC)c(C2C(C(C)=O)=C(O)C(=O)N2CCC(=O)O)c1 (stereo not drawn),i,2e-08,i,1.1%,-4%
CCC(C)(C)n1c(=O)[nH]c2c(c1=O)CCC2,i,2.2e-08,i,1.0%,4%
CCCCCOC(=O)Cn1c(=O)oc2ccccc21,·,·,·,0.0%,-2%
O=C1C(=O)N(CCN2CCOCC2)C(c2ccccn2)/C1=C(/O)c1ccccc1 (stereo not drawn),i,5.8e-09,i,·,·
NS(=O)(=O)c1ccc(NC(=O)CSC2=NC(=O)C(c3ccccc3)C(=O)N2)cc1 (stereo not drawn),·,·,·,-0.5%,-1%
CCOC(=O)Cn1nnnc1CN(Cc1ccc(OC)cc1)Cc1cc2cc(CC)ccc2[nH]c1=O,i,3.7e-08,i,-0.5%,12%
COc1ccc(NC2CC(=O)N(c3cccc(C)c3)C2=O)cc1 (stereo not drawn),i,2.1e-08,i,-2.7%,?
O=C(CN1C(=O)C2(OCCO2)c2ccccc21)c1ccc(Br)cc1,i,1e-09,i,0.6%,27%
CCOCC(=O)Nc1cc(OC)c(Cl)cc1OC,i,1e-09,i,-1.7%,21%
O=C(CSc1n[nH]c(-c2ccc(S(=O)(=O)N3CCCCC3)cc2)n1)Nc1nccs1,i,7.7e-09,i,0.2%,14%
c1cc(Nc2ncnc3sccc23)cc(-c2nnc3n2CCCCC3)c1,i,1e-09,i,-0.2%,8%

# Continued; the last 6 above are carried over.
SMILES,A488 autofl,A647 fluor,Resorufin autofl,AID923,TSHR agonist
CCOC(=O)Cn1nnnc1CN(Cc1ccc(OC)cc1)Cc1cc2cc(CC)ccc2[nH]c1=O,i,3.7e-08,i,-0.5%,12%
COc1ccc(NC2CC(=O)N(c3cccc(C)c3)C2=O)cc1 (stereo not drawn),i,2.1e-08,i,-2.7%,?
O=C(CN1C(=O)C2(OCCO2)c2ccccc21)c1ccc(Br)cc1,i,1e-09,i,0.6%,27%
CCOCC(=O)Nc1cc(OC)c(Cl)cc1OC,i,1e-09,i,-1.7%,21%
O=C(CSc1n[nH]c(-c2ccc(S(=O)(=O)N3CCCCC3)cc2)n1)Nc1nccs1,i,7.7e-09,i,0.2%,14%
c1cc(Nc2ncnc3sccc23)cc(-c2nnc3n2CCCCC3)c1,i,1e-09,i,-0.2%,8%
CNC(=O)c1[nH]cnc1C(=O)Nc1cccc(OC)c1,i,1.5e-08,i,0.8%,-27%
COc1ccc(NCc2ccc3c(c2)OCO3)cc1Cl,i,1e-09,i,1.2%,-1%
CCOC(=O)CSc1nc2cc(C)ccc2cc1C#N,i,3.9e-09,i,7.5%,?
CCOC(=O)c1ccc2c(c1)nc(SCC(=O)c1ccco1)n2CC,i,7.2e-09,i,-1.5%,·
Cc1cc(C)n2nc(SCN3C(=O)c4ccccc4C3=O)nc2n1,i,2.6e-08,i,2.5%,4%
CS(=O)(=O)N(CC(=O)N1CCOCC1)c1ccc2c(c1)OCO2,i,1e-09,i,-0.3%,0%
O=S(=O)(/C=C/c1ccccc1)NCCc1ccccn1,i,2.3e-08,i,0.5%,3%
CC(C)(C)NC(=O)CSc1nnc(-c2ccccn2)n1-c1ccccc1,·,·,·,-1.6%,1%
CCOC(=O)/C(C#N)=C1/C=C(C)NC(c2ccccc2O)=N1,·,·,·,6.6%,?
Cc1ccc(Cn2ncc3c(N4CCN(c5ccc(C)cc5)CC4)ncnc32)cc1,i,3.9e-09,i,·,·
CC(C)n1nc(C(=O)Nc2nc3ccc(S(C)(=O)=O)cc3s2)c2ccccc2c1=O,i,7.4e-09,i,-1.4%,?
CCCCC(=O)Nc1ccc(N2CCN(C(=O)CC)CC2)cc1,i,1e-09,i,0.6%,5%
Cc1ccc(N2CCN(c3cc(C)nc4nc(C)nn34)CC2)c(C)c1,·,·,·,-2.2%,24%
Cc1cc(C)c2c(N)c(C(=O)N3CCN(c4ncccn4)CC3)sc2n1,i,6.3e-09,i,8.6%,1%
COc1ccc(S(=O)(=O)N2Cc3ccccc3CC2C(=O)Nc2nccs2)cc1OC (stereo not drawn),i,3.8e-09,i,-0.8%,9%
CCCn1c(-c2ccc(OC)cc2)nc2nc3ccccc3nc21,i,2e-08,i,8.2%,?
Cc1cc(C)nc(NS(=O)(=O)c2ccc(Br)s2)c1,·,·,·,2.0%,-4%
O=C(O)[C@@H]1[C@@H](C(=O)Nc2ncccn2)[C@@H]2C=C[C@@H]1O2,i,1e-09,i,0.0%[11.5 µM],-1%[11.4 µM]
COc1ccc(CCCc2nnc(SCC(=O)Nc3nc(C)cs3)n2C)cc1,i,1e-08,i,1.3%,2%
COc1ccc(C2=C(O)C(C)N(c3ccccc3)C2=N)cc1OC (stereo not drawn),i,9.9e-09,i,1.8%,-4%
CC(C)OC(=O)c1cc(NC(=O)C2C3CCC(O3)C2C(=O)O)cc(C(=O)OC(C)C)c1 (stereo not drawn),i,2.8e-09,i,-0.3%,4%
COc1ccc(C)cc1-n1nnnc1SCC1CCCCO1 (stereo not drawn),i,3.1e-08,i,1.0%,?
O=C1CCCCCN1C(=O)c1cccc(C(=O)N2CCCCCC2=O)c1,i,1e-09,i,1.6%,-2%
O=C(O)CCC(=O)OCC1CCCO1 (stereo not drawn),i,1e-09,i,2.2%,12%
Cc1ccc(NS(=O)(=O)c2cn(C)cn2)cc1,i,3.7e-09,i,0.3%,0%[11.4 µM]
O=c1c2[nH]c3ccccc3c2ncn1CCN1CCNCC1,i,4.9e-09,i,1.3%,-4%
Cn1nnnc1SCC(=O)N1c2ccccc2Sc2ccccc21,i,2.2e-09,i,1.7%,2%
COc1nc(N2CCOCC2)nc(-n2cccc2)n1,i,1e-09,i,0.1%,14%[11.4 µM]
CCN1CCN(C(=O)CCN2C(=O)COc3ccc(C)cc32)CC1,i,3.4e-09,i,-1.1%,1%
CCn1c(CCNC(=O)c2cccs2)nnc1SCC(=O)c1ccc(OC)cc1,i,1.7e-08,i,0.6%,0%
CC12CC(NC(=O)N1c1cccc(C(=O)N3CCN(c4ccccc4)CC3)c1)c1ccccc1O2 (stereo not drawn),i,8.5e-09,i,2.1%,-6%[11.4 µM]
CCSC1=C(C#N)C2(CCCCC2)C(C#N)=C(N)N1,i,9.6e-09,i,0.1%,-6%
COc1cc(C(=O)N2CCN(C(=O)C(Cc3cc(C)ccc3C)NC(C)=O)CC2)cc(OC)c1OC (stereo not drawn),i,2.7e-08,i,-0.2%,18%
CN1CCN(C(=O)CCC(=O)c2ccc(F)cc2)CC1,i,1.8e-09,i,0.4%,14%
O=C(c1csnn1)N1CCC2(CCCN(c3ccccc3)C2)CC1,i,7e-09,i,0.2%,3%
O=C(Nc1cccnc1)c1ccc(COCC(F)(F)F)cc1,i,3.2e-09,i,-1.6%,1%
COc1ccc(S(=O)(=O)Nc2ccc(O)c3ccccc23)cc1,i,7e-09,i,13%,26%
Cc1ccc(C)c(S(=O)(=O)NCc2ccc(C(=O)N3CCN(C)CC3)cc2)c1,i,1e-09,i,0.5%,14%
O=C(Nc1cc(N2CCOCC2)ncn1)NC1(C(F)(F)F)Oc2ccc(Cl)cc2O1 (stereo not drawn),i,1e-09,i,1.9%,0%[11.4 µM]
Cc1ccc2c(c1)c(C)c(C)n2CC(O)Cn1nc(C)cc1C (stereo not drawn),i,6.5e-08,i,1.0%,-16%
CC1(C)S[C@@H]2[C@H](NC(=O)[C@H](N)c3ccccc3)C(=O)N2[C@H]1C(=O)O,i,1.5e-08,i,4.1%,?
COCCn1c(SCC(=O)Nc2cccc(C(=O)OC)c2)nc2ccccc2c1=O,i,2e-08,i,0.1%,?
Cc1nn(CCC(=O)O)c2nc(-c3cccnc3)cc(C(F)(F)F)c12,i,1e-09,i,0.1%,2%
Cc1ccc(S(=O)(=O)N[C@H]2COC(=O)C/C=C\[C@@H](C)COC(=O)C/C=C\[C@@H]2C)cc1,·,·,·,-2.0%&1.9%[11.5 µM],1%&-6%[11.4 µM]
CCOc1ccccc1N1CC(O)=C(c2nc3ccccc3s2)C1=N,i,8.2e-09,i,-0.4%,24%
COc1ccc2[nH]cc(C(=O)CN3CCN(C4CCCCC4)CC3)c2c1,i,2e-08,i,-0.4%,6%
CC1=CC(C)C(/C=N/n2cnnc2)C(C)C1 (stereo not drawn),i,1e-09,i,-0.1%,5%
COC(=O)c1ccc(C)c(N(CCO)CCO)c1,i,2.6e-08,i,-0.3%,16%

# In the list so far, these have a furan ring, fused or not.
SMILES,A488 autofl,A647 fluor,Resorufin autofl,AID923,TSHR agonist
Cc1cc(C(=O)OCC(=O)Nc2ccc(F)cc2)c(C)o1,i,3.4e-08,i,1.8%,-12%
CCOC(=O)c1ccc2c(c1)nc(SCC(=O)c1ccco1)n2CC,i,7.2e-09,i,-1.5%,·

# (more compounds)
SMILES,A488 autofl,A647 fluor,Resorufin autofl,AID923,TSHR agonist
CCN1CCN(C(=O)CN(c2cc(OC)ccc2OC)S(C)(=O)=O)CC1,i,1.2e-08,i,1.7%,-2%
COc1ccc(/C=N/n2c(C)nnc2C)c(OC)c1OC,·,·,·,2.2%,-1%
Cn1c(=O)c2c(ncn2Cc2ccc(Cl)c(Cl)c2)n(C)c1=O,i,2.4e-09,i,-1.1%,16%
N#Cc1c(NC(=O)Cn2c(=O)oc3ccccc32)oc(-c2ccccc2)c1-c1ccccc1,i,1e-09,i,-2.3%,?
Cn1c(Cc2ccc3c(c2)OCO3)nnc1SCC(=O)N1CCc2ccccc2C1,i,2.5e-08,i,0.6%,1%
CCCn1c(SCC(=O)c2cc(OC)ccc2OC)nc2c1c(=O)n(C)c(=O)n2C,i,1.9e-09,i,0.1%,4%
O=C(NCCSCc1ccco1)c1ccc(CN2CCOCC2)cc1,·,·,·,-1.6%,2%
O=C(NCc1ccc(F)cc1)c1ccc(CS(=O)(=O)Cc2ccccc2F)o1,i,1e-09,i,-0.4%,15%
Clc1ccc([C@@H](c2ccccc2Cl)C(Cl)Cl)cc1,i,8.6e-09,i,·,20µM*
O=C(NC(Cc1ccccc1)C(=O)OCC(=O)N1CCc2ccccc21)c1ccco1 (stereo not drawn),i,1e-09,i,2.6%,13%
COc1ccc(-c2nnn(CC(=O)c3ccc4c(c3)OCCO4)n2)cc1OC,i,6.6e-09,i,-1.2%,?
CCOC(=O)CCN1C(=O)[C@H]2[C@H]3[C@H](O)[C@H](O)C/C(=N/NC(=O)OCC)[C@@H]3CC[C@@H]2C1=O,·,·,·,0.8%[11.5 µM],2%[11.4 µM]
Cc1c(Cl)cccc1NC(=O)CSc1nnc(CCNC(=O)OC(C)(C)C)o1,i,2.9e-08,i,-2.6%,?
CC(C)C[C@H](NC(=O)NCCc1ccc(Cl)cc1)C(=O)O,i,1.8e-08,i,-0.3%,19%
Cc1cccc(CNc2ncnc3ccc(-c4ccc(C(=O)N(C)C)cc4)cc23)c1,i,1e-09,i,-1.0%,28%
CCCC(c1nnnn1C(C)(C)CC)N1CCN(C2CCCC2)CC1 (stereo not drawn),i,1e-09,i,-1.9%,?
CCOC(=O)C1=C(c2ccccc2)Nc2nc(C)nn2C1c1cccc(OC)c1OC (stereo not drawn),i,2.9e-08,i,1.0%,3%
O=C(O)c1ccc(-n2nc(C(F)(F)F)c3c2-c2ccoc2CC3)cc1,i,1e-09,i,-2.9%,?
Cc1cc2c(s1)c1cnn(Cc3ccccc3F)c(=O)c1n2C,i,3.7e-08,i,0.6%,?

# From PubChem
